eIF4H FP inh = human eIF4H binding inhibitors, primary screen, translation initiation inhibitor project, biochemical, uHTS, fluorescence polarization | 0.94% of 290,000 active | eIF4H fluorescence polarization binding assay | AID 2012, 2009 | inhibition, % at 35 µM;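 active = 50% or more with normal probe brightness, or confirmed in later tests; inconclusive = above 50% with abnormal brightness, or retests that disagree; inactive = below 50% or failed in later tests; about a fifth of its hits are not listed in these tables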;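 also: calls also rest on retests at 20 µM and on dose response follow-up; 0% = protein and probe with vehicle and 100% = probe without protein; strong numbers were not always called active; many hits fall short of the cut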
PABP polyA inh = PABP poly(A) RNA binding inhibitors, primary screen, biochemical, fluorescence polarization, uHTS. Polyadenylate-binding protein 1 (Homo sapiens), P11940. inhibition, % at 35 µM. 1% of 290,000 active. AID 2014, 2009;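 active = 50% or more with normal probe brightness, or confirmed in later tests; inconclusive = above 50% with abnormal brightness, or retests that disagree; inactive = below 50% or failed in later tests; about a fifth of its hits are not listed in these tables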;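 also: calls also rest on retests at 20 µM and on dose response follow-up; controls were probe without protein and protein plus probe with vehicle; some compounds called inactive have numbers as strong as hits; many hits fall short of the cut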
Rce1 inh = yeast Rce1p protease inhibitors, primary screen, biochemical, fluorescence, cell-free homogeneous | CAAX prenyl protease 2 (Saccharomyces cerevisiae (strain ATCC 204508 / S288c)), Q03530 | yeast membranes, quenched prenylated peptide cleavage fluorescence | calls only | 0.27% of 290,000 active | AID 2563, 2010;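 active = fall in fluorescence gain of 50% or more versus controls, with final raw signal at or below 3038400; inconclusive = same 50% fall but final raw signal above 3038400; inactive = fall in fluorescence gain under 50%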;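 also: plate controls were neutral control wells for no effect and wells lacking membranes for full effect; tested at 10 µM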
Target sequence (Q03530 whole entry, looked up): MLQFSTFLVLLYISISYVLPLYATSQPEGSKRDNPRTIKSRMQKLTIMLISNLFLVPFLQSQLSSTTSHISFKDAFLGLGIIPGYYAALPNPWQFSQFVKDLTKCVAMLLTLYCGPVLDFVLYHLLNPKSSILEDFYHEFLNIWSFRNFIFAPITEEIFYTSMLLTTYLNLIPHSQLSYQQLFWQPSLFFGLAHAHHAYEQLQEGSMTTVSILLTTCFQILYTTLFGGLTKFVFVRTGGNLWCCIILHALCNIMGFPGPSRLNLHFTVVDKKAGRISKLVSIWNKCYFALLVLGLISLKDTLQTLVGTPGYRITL
HIV Env fusion = inhibitors of HIV-1 Env-driven cell-cell fusion, primary screen, HeLa-JRFL effector, CEM21 target cells, luciferase; inhibition, % at 12.3 µM; 1.1% of 360,000 active;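 active = mean replicate inhibition score of at least 50 and every replicate individually at or above 50; inconclusive = only one of the two criteria met; inactive = mean below 50 and not all replicates reaching 50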;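 also: 0% = plate neutral controls and 100% = maraviroc near 300 nM; one replicate is shown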
Yeast UUG start = modulators of yeast start codon fidelity, primary screen, whole organism, S. cerevisiae, single point, plate reader; activity score, % at 18.7 µM; S. cerevisiae UUG-firefly luciferase reporter, luminescence/redox ratio; 0.13% of 350,000 active;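 active = replicate mean at a twofold rise or more, about +100% in these data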;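 also: firefly luciferase made from a UUG start codon reports start codon fidelity; reporter light over untreated wells divided by growth signal over untreated wells; some hits fall short of that in this replicate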
MT1-MMP act inh = blockers of MT1-MMP proenzyme processing, primary screen, HT1080 RFP-PRO-GFP cells, GFP/RFP fluorescence. 0.061% of 360,000 active. Matrix metalloproteinase-14 (Homo sapiens), P50281. GFP/RFP ratio change, % at 20 µM. GFP/RFP ratio fluorescence, overnight; percent of plate control window, DMSO zero;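 active = GFP/RFP ratio change of at least 30% with cell ATP level not reduced by more than half and red fluorescence within 50% of control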; also: strong numbers were not always called active
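Assay system: HT1080 RFP-PRO-GFP cells | Dosing: 20 µM single dose, 1% DMSO | Incubation: Cells overnight before dosing, compound overnight, 37 °C, 5% CO2 | Evaluation: GFP/RFP fluorescence ratio | Control set: DMSO-only wells and HT1080 RFP-L50D-GFP cell wells as references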
CSC inhib = cancer stem cell viability inhibitors, primary screen, luminescence | cancer stem cell-like cells viability | inhibition, % at 7.5 µM | AID 2717, 2010 | 1.1% of 300,000 active;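 active = mean at 75% or more and at least half the replicates too; inconclusive = mean and replicates disagree; tested in HMLE shEcad cells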;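 also: 0% = median of negative and 100% = median of positive control wells; the first replicate is given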
MT1-MMP act inh RFP = also measured in MT1-MMP act inh; calls as there; RFP signal change, %; measured here: RFP expression control read;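 0 = vehicle wells; hits needed this value within 50% of zero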
Numbers without * were called inactive; i = inactive; ? = inconclusive; / = no result given. An excerpt. The share of hits here may be higher or lower than overall.

| # | structure | Yeast UUG start | Rce1 inh | eIF4H FP inh | MT1-MMP act inh RFP |
| --- | --- | --- | --- | --- | --- |
| 1 | CC/C(=N\N1CCN(C)CC1)c1c(O)[nH]c(=O)[nH]c1=O | -6.3 | i | -3.8 | 4.3 |
| 2 | CS(=O)(=O)NNP(=O)(NNS(C)(=O)=O)NC(=O)c1ccc(Br)cc1 | -17.8 | / | -11.1 | -1.7 |
| 3 | CC12CC[C@H]3[C@@H](CCC4(O)C[C@H](O)CCC34/C=N/NC(=O)c3ccccc3[N+](=O)[O-])C1(O)CCC2C1=CC(=O)OC1 (stereo not given in full) | 12.4 | i | -6.4 | 3.7 |
| 4 | O=C(CN1CCOCC1)c1ccc2cc[nH]c2c1 | -10.9 | i | -10.1 | 6.3 |
| 5 | Nc1cccc(SC2CC(=O)N(c3ccc(Cl)cc3C(=O)c3ccccc3)C2=O)c1 (stereo not given) | 2.2 | / | / | -20.6 |
| 6 | O=c1c2ccccc2nc(-c2ccccc2)n1-c1ccncc1 | -13.8 | i | 1.0 | 7.2 |
| 7 | CCOC(=O)C(c1c(O)c2ccccc2oc1=O)c1c(O)c2ccccc2oc1=O | -17.2 | / | / | -1.6 |
| 8 | CC1CC2CC(=O)CCC2(C)C2CCC3(C)C(O)CCC3C12 (stereo not given) | -2.6 | / | / | -3.0 |
| 9 | CC(=O)Cc1c[nH]c2ccccc12 | / | i | -5.5 | / |
| 10 | Cc1ccccc1-n1c(CNc2ccccc2)nc2ccccc2c1=O | -1.6 | i | / | -6.1 |
| 11 | CC(C)CCP(=O)(O)c1ccccc1 | -19.4 | i | -1.3 | 4.6 |
| 12 | O=C(NCCN1CCOCC1)c1ccc(Cl)nc1 | -15.6 | i | -0.3 | 3.7 |
| 13 | Cc1ccc(OC(F)F)c(N2C(=O)C3C4CCC(O4)C3C2=O)c1 (stereo not given) | -12.9 | / | / | 0.5 |
| 14 | CCOC(=O)[C@]12Cc3cc(Cl)ccc3[C@H]1N(Cc1ccccc1)C(=O)c1ccccc12 | 8.6 | / | / | -13.2 |
| 15 | COc1ccc2c(c1)[C@]13CCCCC1C(C2)N(C)CC3 (stereo not given in full) | 5.0 | i | / | -1.1 |

| # | MT1-MMP act inh | HIV Env fusion | PABP polyA inh | CSC inhib |
| --- | --- | --- | --- | --- |
| 1 | 1.7 | -56.1 | -7.4 | 1.9 |
| 2 | -6.0 | -140.5 | -7.5 | -21.5 |
| 3 | 8.1 | -60.6 | 4.7 | 22.8 |
| 4 | 1.8 | -3.6 | -17.6 | 8.1 |
| 5 | -4.6 | -0.8 | / | / |
| 6 | 0.9 | -37.6 | -11.7 | -1.1 |
| 7 | -1.2 | -2.0 | / | / |
| 8 | 11.2 | 47.7 | / | / |
| 9 | / | / | -1.9 | 3.8 |
| 10 | -2.0 | 36.8 | / | -4.1 |
| 11 | 6.1 | / | 5.6 | / |
| 12 | 0.9 | 9.5 | 7.0 | -7.0 |
| 13 | -2.5 | -8.2 | / | / |
| 14 | -9.4 | -298.8 | / | / |
| 15 | -12.7 | -8.0 | / | -7.3 |

Reprinted from the part before: four entries, followed by the next part.
| # | structure | Yeast UUG start | Rce1 inh | eIF4H FP inh | MT1-MMP act inh RFP |
| --- | --- | --- | --- | --- | --- |
| 12 | O=C(NCCN1CCOCC1)c1ccc(Cl)nc1 | -15.6 | i | -0.3 | 3.7 |
| 13 | Cc1ccc(OC(F)F)c(N2C(=O)C3C4CCC(O4)C3C2=O)c1 (stereo not given) | -12.9 | / | / | 0.5 |
| 14 | CCOC(=O)[C@]12Cc3cc(Cl)ccc3[C@H]1N(Cc1ccccc1)C(=O)c1ccccc12 | 8.6 | / | / | -13.2 |
| 15 | COc1ccc2c(c1)[C@]13CCCCC1C(C2)N(C)CC3 (stereo not given in full) | 5.0 | i | / | -1.1 |
| 16 | O=c1[nH]c(=S)[nH]c(O)c1N=Nc1ccc(S(=O)(=O)N2CCc3ccccc32)cc1 | / | i | -4.7 | -0.3 |
| 17 | C=CCNC(=O)c1c(N)n(CCN2CCOCC2)c2nc3ccccc3nc12 | / | i | 2.1 | -0.7 |
| 18 | COc1cccc(-n2c(O)c(C=Nc3c(C)n(C)n(-c4ccccc4)c3=O)c(=O)[nH]c2=O)c1 | / | i | -5.3 | 8.1 |
| 19 | COc1cc(C2SCC(=O)Nc3c2c(=O)[nH]n3C2CCCCCC2)cc(OC)c1OC (stereo not given) | / | i | -11.1 | -0.4 |
| 20 | CC1(C)N=C(c2ccccc2)[C@@H]2C(c3ccc([N+](=O)[O-])cc3)N21 (stereo not given in full) | -2.3 | i | -1.7 | 4.4 |
| 21 | COc1ccc(NC(=O)c2cc([N+](=O)[O-])ccc2N2CCNCC2)cc1 | / | i | -8.1 | 1.6 |
| 22 | COC(=O)Cn1cc(/C=C2\C(=O)NC(=O)N(c3ccccc3)C2=O)c2ccccc21 | -17.7 | i | ? | 7.6 |
| 23 | CC(C(=O)O)N(C(=O)c1ccccc1)c1ccc(F)c(Cl)c1 (stereo not given) | -9.1 | i | 1.3 | -3.0 |
| 24 | COc1ccc(CC2(CCc3ccccn3)C(=O)NC(=O)N(c3ccccc3C)C2=O)cc1OC (stereo not given) | / | i | -7.7 | 2.3 |
| 25 | CC[C@@]1(O)C(=O)OCc2c1cc1n(c2=O)Cc2cc3ccccc3nc2-1 | / | i | -4.2 | / |
| 26 | CCOC(=O)C1=C(N)Oc2c(c(=O)oc3ccccc23)C12C(=O)N(C)c1ccccc12 (stereo not given) | -3.9 | i | 2.4 | 0.8 |
| 27 | CC12CN3CN(C1)CC(C)(C3)C2=NO | -13.2 | i | -10.7 | 2.2 |
| 28 | O=C(Nc1ccc(Cl)cc1)N1CC1 | -12.3 | / | / | 2.5 |
| 29 | CC(C)Nc1ccc(Nc2ccccc2)cc1 | -11.3 | i | / | -1.3 |
| 30 | COC(=O)C1=C(c2ccc3ccccc3c2)C[C@@H]2CC[C@H]1N2C(=O)N1CCCCC1 | -16.1 | / | / | -18.8 |

| # | MT1-MMP act inh | HIV Env fusion | PABP polyA inh | CSC inhib |
| --- | --- | --- | --- | --- |
| 12 | 0.9 | 9.5 | 7.0 | -7.0 |
| 13 | -2.5 | -8.2 | / | / |
| 14 | -9.4 | -298.8 | / | / |
| 15 | -12.7 | -8.0 | / | -7.3 |
| 16 | 0.6 | -16.6 | 8.0 | 10.9 |
| 17 | 6.5 | / | 12.4 | 3.4 |
| 18 | 0.3 | -2.0 | -3.5 | -22.2 |
| 19 | 0.8 | -96.2 | -13.1 | -7.9 |
| 20 | 3.1 | 4.7 | -9.8 | -17.7 |
| 21 | 0.4 | 26.3 | 5.5 | -1.5 |
| 22 | -23.7 | -14.1 | ? | -2.6 |
| 23 | -3.8 | 12.0 | 6.0 | -9.3 |
| 24 | -2.6 | 4.3 | -1.5 | -9.8 |
| 25 | / | / | 5.6 | 60.4 |
| 26 | 12.8 | / | 7.4 | -11.0 |
| 27 | 3.8 | -31.0 | 39.3 | -2.5 |
| 28 | 2.3 | -11.5 | / | / |
| 29 | 8.0 | -30.7 | / | 3.5 |
| 30 | 7.1 | 11.6 | / | 6.5 |

Later entries:
| # | structure | Yeast UUG start | Rce1 inh | eIF4H FP inh | MT1-MMP act inh RFP |
| --- | --- | --- | --- | --- | --- |
| 31 | COc1ccccc1CCNCc1cc2c(cc1[N+](=O)[O-])OCO2 | -20.6 | i | 19.0 | / |
| 32 | CC(CO)(CO)N=Cc1c(O)n(-c2cccc3ccccc23)c(=O)[nH]c1=O | -8.0 | i | -3.0 | -0.5 |
| 33 | COC(=O)C1=C(c2ccc(F)cc2OCc2ccccc2)C[C@@H]2CC[C@H]1N2C(=O)NCc1cccc(F)c1 | -9.4 | / | / | -10.9 |
| 34 | COC(=O)C1=C(c2ccc(OC)c(OC)c2)C[C@@H]2CC[C@H]1N2C(=O)NCc1cccc2ccccc12 | -5.2 | / | / | -6.3 |
| 35 | CCc1ccc2c(CN3CC=C(c4ccccc4)CC3)cc(=O)oc2c1 | / | i | -0.6 | -0.8 |
| 36 | O=S1(=O)N(CCN2CC=C(c3c[nH]c4cc(F)ccc34)CC2)c2cccc3c2N1CCC3 | -10.5 | / | / | -11.5 |

| # | MT1-MMP act inh | HIV Env fusion | PABP polyA inh | CSC inhib |
| --- | --- | --- | --- | --- |
| 31 | / | -34.5 | 12.1 | -17.5 |
| 32 | -3.6 | / | 4.5 | 6.4 |
| 33 | -8.2 | -13.1 | / | 20.4 |
| 34 | -0.1 | -43.9 | / | -14.3 |
| 35 | -0.7 | -2.8 | 2.0 | -10.2 |
| 36 | 1.9 | ? | / | 31.0 |

Copied from above: entries 31–33
| # | structure | Yeast UUG start | Rce1 inh | eIF4H FP inh | MT1-MMP act inh RFP |
| --- | --- | --- | --- | --- | --- |
| 31 | COc1ccccc1CCNCc1cc2c(cc1[N+](=O)[O-])OCO2 | -20.6 | i | 19.0 | / |
| 32 | CC(CO)(CO)N=Cc1c(O)n(-c2cccc3ccccc23)c(=O)[nH]c1=O | -8.0 | i | -3.0 | -0.5 |
| 33 | COC(=O)C1=C(c2ccc(F)cc2OCc2ccccc2)C[C@@H]2CC[C@H]1N2C(=O)NCc1cccc(F)c1 | -9.4 | / | / | -10.9 |

| # | MT1-MMP act inh | HIV Env fusion | PABP polyA inh | CSC inhib |
| --- | --- | --- | --- | --- |
| 31 | / | -34.5 | 12.1 | -17.5 |
| 32 | -3.6 | / | 4.5 | 6.4 |
| 33 | -8.2 | -13.1 | / | 20.4 |

Assay outcomes deposited in PubChem BioAssay by several laboratories.
